Screening data deposited in PubChem by National Center for Advancing Translational Sciences (NCATS).
VDR inhibitor: Inhibitors of the vitamin D receptor (VDR): qHTS | Vitamin D3 receptor (Homo sapiens), P11473 | VDR-SRC2-3 peptide fluorescence polarization, 2 h | hit rate 0.93% among 400,000 | Potency, µM, without a hit: max response, negative = inhibition, actives largely listed as inhibitors | AID 504847, 2011; active = well fitted inhibition curve with a large enough effect; inconclusive = small, poorly fitted or top-dose-only effect, or another doubt; inactive = no such curve, though single readings can be large or run the other way; also: series mostly up to about 120 µM
Target sequence (P11473 whole entry, looked up): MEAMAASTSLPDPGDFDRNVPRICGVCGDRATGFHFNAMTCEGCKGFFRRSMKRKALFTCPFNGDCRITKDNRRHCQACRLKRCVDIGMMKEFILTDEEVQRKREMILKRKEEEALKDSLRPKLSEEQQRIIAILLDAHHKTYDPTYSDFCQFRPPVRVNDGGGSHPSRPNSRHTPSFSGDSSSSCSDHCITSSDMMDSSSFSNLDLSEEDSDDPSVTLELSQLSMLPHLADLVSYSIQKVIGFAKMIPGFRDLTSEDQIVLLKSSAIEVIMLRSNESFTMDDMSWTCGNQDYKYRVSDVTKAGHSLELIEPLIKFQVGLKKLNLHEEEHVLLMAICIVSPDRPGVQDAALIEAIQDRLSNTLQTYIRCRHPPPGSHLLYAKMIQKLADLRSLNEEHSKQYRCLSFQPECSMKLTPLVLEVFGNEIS
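Measured by FP: displacement of SRC2-3 coactivator peptide from VDR by library compounds, following a two-hour ambient incubation.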
Numbers without * were called inactive; ? = inconclusive; & = joins results of further samples. % is scaled to controls: 0 for no effect and ±100 for the full control effect; potency is read from the fitted curve at half-maximal effect. Only part of the results is shown; the hit share may differ from the screen's.

VDR inhibitor | Structure
-5.0% | O=C(CSc1nnc(Nc2ccccc2)s1)Nc1cccc(S(=O)(=O)N2CCCCC2)c1
-6.1% | CCn1c(Cc2ccc(OC)cc2)nnc1SCC(=O)N1CCN(c2ccccc2)CC1
-3.2% | C#CCOCCOCCOCCNc1nc(N2CCOCC2)nc(N2CCN(C(=O)[C@H](Cc3cc4ccccc4[nH]3)n3cc([C@@H](N)CC(C)C)nn3)CC2)n1
6.6% | CSc1ccc(N=Nc2c(C)[nH]n(C)c2=O)cc1
-29.1%&-15.8% | COc1ccc(C(=O)c2ccccc2O)c(O)c1
2.8% | O=C(CCNS(=O)(=O)c1ccc(Cl)cc1)N1CCN(c2ncccn2)CC1
7.7% | O=C(O)c1ccc(N2CCCCC2)cc1
-1.1% | Cc1c(C(=O)NCC2COc3ccccc3O2)oc2ccc(S(=O)(=O)N3CC(C)CC(C)C3)cc12 (stereo not drawn)
10.2% | Cc1cccc(C(=O)Nc2nc(-c3ccc(Br)cc3)ns2)c1
8.8% | Cc1ccc(C2=NOC(C)(c3nnc(-c4ccncc4)o3)C2)cc1 (stereo not drawn)
-10.4% | c1ccc(-c2cn3nc(-c4ccccc4)cnc3n2)cc1
-15.0% | O=C(NC(=S)Nc1cccc(O)c1)C1CCCCC1
-20.7% | Cc1cccc(OCC(=O)NCC(C)(C)N2CCOCC2)c1
13.7% | CCCN1Cc2cc(OC)ccc2-c2ccccc2S1(=O)=O
-1.5% | COCC(=O)N/N=C\c1cccc(OC)c1OC/C=C/c1ccccc1
-0.9% | COc1cc(/C=C(\C#N)C(=O)Nc2ccccc2F)ccc1OCCN1CCOCC1
-14.4% | COC(=O)CNC(=O)CN1c2cccc3cccc(c23)S1(=O)=O
0.6% | O=C(C[n+]1cccc(Br)c1)c1ccccc1
9.0% | Cc1cc(SCCC(=O)O)nc2ccccc12
12.7% | NC(=O)CC(NC(=O)Cc1ccc(Br)cc1)c1ccc(NCCOc2ccccc2)c([N+](=O)[O-])c1 (stereo not drawn)
-9.3% | COc1ccc(CNC(=O)c2cccnc2Sc2ccc(Cl)cc2)cc1
-15.0% | O=C(COc1ccc(Br)cc1)NNC(=O)Cc1ccc(S(=O)(=O)N2CCOCC2)s1
6.1% | O=C(Nc1ccc(CN2CCOCC2)cc1)c1cc2ccccn2n1
5.0% | C/C(=N\NC(=O)c1ccc(-n2cnnn2)cc1)c1ccc(C)cc1
-0.3% | COc1cccc(NC(=O)Cc2ccc3ccccc3c2)c1
-5.5% | CCOc1ccc(Cl)cc1S(=O)(=O)n1nnc2ccccc21
3.4% | COC(=O)c1ccc(COc2ccccc2/C=N/NC(N)=O)o1
-1.5% | Cc1nnc(SCC(=O)Nc2ccc(N3CCOCC3)cc2)o1
-18.1% | O=C(c1ccccc1[N+](=O)[O-])n1cnc2ccccc21
-7.7% | COCCN(Cc1nc(C2(c3ccc(C)cc3)CCCC2)no1)C(C)C
17.5% | O=C1CC(c2cccc([N+](=O)[O-])c2)c2cc3c(cc2N1)CCC3 (stereo not drawn)
6.4% | O=C(CN1CCCCC1)NCC1(c2ccccc2)CCCC1
9.5% | CC1(C)CC(=O)c2cc(C(=O)NNc3ccccc3)c(=O)n(-c3ccccc3)c2C1
-3.3% | Cc1ccc(Oc2cc(N3CCOCC3)nc(-c3ccccc3)n2)cc1
5.7% | CCCOC(=O)CSC1=C(C#N)C(c2ccccc2OCC)C(C#N)C(=O)N1 (stereo not drawn)
-3.9% | Cc1ccccc1CN1C(=O)c2ccccc2Sc2ccc(C(=O)NCc3ccccc3)cc21
7.5% | CSc1nc(-c2ccc(F)cc2)nc2c1Cc1c(CO)cnc(C)c1O2
-13.1% | O=C1CCCc2c1cc(C(=O)NCCCN1CCOCC1)c(=O)n2-c1ccc(Cl)cc1
? | Cc1nc(C)c(C(=O)N(c2ccccc2F)C(C(=O)NCC2CCCO2)c2ccccc2)s1 (stereo not drawn)
-3.9% | O=S(=O)(c1ccc(NCc2ccc(F)cc2)nc1)N1CCCC1
-3.4% | CCN(CC)CCNC(=O)c1ccc(Cl)c(S(=O)(=O)Nc2ccccc2OC)c1
-12.6% | CCOC(=O)C(Cc1c[nH]c2ccccc12)NC(=O)c1ccccc1Br (stereo not drawn)
3.4% | O=C(CSc1ncc(-c2ccccc2)nn1)NCc1ccco1
11.0% | Cc1cnc(NC(=O)c2ccc3c(c2)OCCO3)s1
-21.4% | Cn1c(=O)c2c(ncn2CC(O)CNc2ccc(F)cc2)n(C)c1=O (stereo not drawn)
-8.9% | Cc1cccc2sc(NNC(=O)C3COc4ccccc4O3)nc12 (stereo not drawn)
-6.5% | C/C(=C\c1ccccc1F)C(=O)c1c(C)cc(C)[nH]c1=O
-3.0% | CCN(CC)CCNC(=O)c1ccc(NC(=O)Cc2ccc(OC)c(S(=O)(=O)N3CCOCC3)c2)cc1
9.4% | Cn1c(SCC(=O)Nc2ccccc2C(F)(F)F)nc2c(c1=O)SCC2
-11.0% | COc1ccc(CNC(=O)C(=O)NCC2OCCN2S(=O)(=O)c2cccs2)cc1 (stereo not drawn)
25.3% | NC(=S)NCc1cccnc1
0.7% | Cc1c(Cl)cccc1NC(=O)CNc1cccc(S(=O)(=O)N(C)C)c1
6.4% | CN(Cc1ccccc1)C(=O)COC(=O)c1cc(NS(=O)(=O)c2cccs2)ccc1O
7.5% | Cc1cccc(Cn2cnc3c(nnn3Cc3ccc(F)cc3)c2=O)c1
4.4% | CN1CCN(C(=O)CC23CC4CC(CC(C4)C2)C3)CC1
-8.6% | COC(=O)c1cc(NC(=O)c2ccc([N+](=O)[O-])cc2)c(=O)oc1C
8.7% | CCOC(=O)c1[nH]c(C)c(C(=O)NC(C)CC)c1C (stereo not drawn)
12.9% | COC(=O)[C@H](C)NC(=O)Nc1ccc(OC)cc1OC
-0.7% | CC(C)CN(CCNC(=O)c1cc(=O)[nH]c2ccc(S(=O)(=O)N3CCCCCC3)cc12)CC(C)C
-14.5% | COc1ccc(C2CC(c3ccccc3)=NN2C(=O)COC(=O)c2ccc(Cl)nc2)cc1 (stereo not drawn)

Other entries follow.
VDR inhibitor | Structure
-10.1% | CCC1(CC)NC(=O)NC1=O
6.4% | CNC(=O)/C(C#N)=C/c1cn(CC(=O)NCc2ccco2)c2ccccc12
3.0% | COc1cccc(/C=C/c2nc(C#N)c(N3CCCCC3)o2)c1
7.0% | CC1(c2ccc3ccccc3c2)NC(=O)N(CC(=O)N2CCN(c3ccccc3O)CC2)C1=O (stereo not drawn)
3.3% | COc1cccc(/C=N/NC(=S)Nc2cccc(C(=O)O)c2)c1O
-1.7% | CCOC(=O)c1c(C)[nH]c(C(=O)COC(=O)C(C)Oc2ccc(Cl)cc2Cl)c1C (stereo not drawn)
-13.5% | CCc1cc(=O)oc2cc(OC(C)C(=O)NCC3CCC(C(=O)O)CC3)c(Cl)cc12 (stereo not drawn)
? | Nc1ccc(/C=C/C(=O)c2ccco2)cc1
4.7% | COc1ccc(-n2ncc(C(=O)Nc3ccc4c(c3)OCCO4)c2C2CCN(C(=O)OC(C)(C)C)CC2)cc1
-11.2% | Cc1ccc(C)c(COc2coc(CN3CCN(C(=O)c4ccco4)CC3)cc2=O)c1
2.1% | COc1ccc(S(=O)(=O)N2c3ccccc3OCC2c2ccccc2)cc1 (stereo not drawn)
1.3% | CCOC(=O)Cn1cnc2c(nnn2Cc2ccc(Cl)cc2)c1=O
7.0% | CCC(=O)Nc1sccc1C(=O)OC
-2.7% | Nc1nc(NCC2CCCO2)nc(NCC2CCCO2)c1[N+](=O)[O-] (stereo not drawn)
3.6% | N#Cc1c(C(F)(F)F)cc(-c2ccccc2)nc1SCC(=O)N1CCOCC1
-7.5% | Brc1ccc(CSc2nnc(-c3cnccn3)n2Cc2ccco2)cc1
16.8% | Cc1cccc(-c2nn3c(=O)cc(CN4CCN(S(=O)(=O)c5ccc(Cl)cc5)CC4)nc3s2)c1
-21.5% | Cc1noc(NS(=O)(=O)c2ccc(NS(=O)(=O)c3ccc(Cl)cc3)cc2)c1C
3.3% | CCc1ccc(NC(=O)CN(c2cccc(C)c2)S(C)(=O)=O)cc1
1.3% | CN1CCC2(CCN3CCc4c(oc5ccccc45)C3C2)N(C)C1=O (stereo not drawn)
? | CCN(C(=O)CSc1nc(-c2ccccc2)c(-c2ccccc2)[nH]1)C1CCS(=O)(=O)C1 (stereo not drawn)
-6.3% | Cc1cccc(C)c1NC(=O)CN(C)CC(=O)Nc1ccc(F)c(Cl)c1
14.7% | Cn1cccc1-c1nc2ccccc2n1C
8.1% | CC(Oc1ccc(-c2ccccc2)cc1)C(=O)N1CCOCC1 (stereo not drawn)
5.4% | O=C(C1CC(=O)N(c2ccc(Cl)cc2)C1)N1CCCCCC1 (stereo not drawn)
-15.4% | CCCc1c(C(=O)N/N=C(/C)c2ccncc2)nnn1-c1nonc1N
-5.0% | Cc1cc(C)cc(OCCn2ccnc2)c1
12.2% | Cc1ccc(OCC(=O)Nc2ccc(N(C)C)cc2)cc1
-6.7% | CCOC(=O)Cn1cnc2c(nnn2-c2ccccc2)c1=O
9.2% | O=C(Oc1ccc(-c2nnco2)cc1)c1ccco1

Structures from the list above that have a furan ring, fused or not:
VDR inhibitor | Structure
-1.1% | Cc1c(C(=O)NCC2COc3ccccc3O2)oc2ccc(S(=O)(=O)N3CC(C)CC(C)C3)cc12 (stereo not drawn)
3.4% | COC(=O)c1ccc(COc2ccccc2/C=N/NC(N)=O)o1
3.4% | O=C(CSc1ncc(-c2ccccc2)nn1)NCc1ccco1
6.4% | CNC(=O)/C(C#N)=C/c1cn(CC(=O)NCc2ccco2)c2ccccc12
? | Nc1ccc(/C=C/C(=O)c2ccco2)cc1
-11.2% | Cc1ccc(C)c(COc2coc(CN3CCN(C(=O)c4ccco4)CC3)cc2=O)c1
-7.5% | Brc1ccc(CSc2nnc(-c3cnccn3)n2Cc2ccco2)cc1
1.3% | CN1CCC2(CCN3CCc4c(oc5ccccc45)C3C2)N(C)C1=O (stereo not drawn)
9.2% | O=C(Oc1ccc(-c2nnco2)cc1)c1ccco1

Continued.
VDR inhibitor | Structure
-4.7% | COc1ccc(-n2c(SCC(=O)NNC(=O)c3ccc(C)cc3)nnc2-c2ccncc2)cc1
13.7% | O=C(Nc1ccc(N2CCOCC2)nc1)c1ccc(C(F)(F)F)cc1
-2.4% | COC(=O)c1ccc(C23CC4(C2)[C@H](CN(C)[C@@H]4c2ccccc2)C3c2ccc(C(F)(F)F)cc2)cc1 (stereo partly drawn)
-12.5% | COc1ccc(/C=C/C(=O)NCCc2ccc(S(N)(=O)=O)cc2)cc1
-2.5% | CCOC(=O)N1CCN(C(=O)CC(C)S(=O)(=O)c2cc3c(cc2C)NC(=O)CO3)CC1 (stereo not drawn)
? | c1ccc(C(c2ccccc2)N2CCCC3(CCNCC3)C2)cc1
4.9% | Cc1ccc2nsnc2c1S(=O)(=O)NCCc1c(C)[nH]c2ccc(F)cc12
-8.9%&8.3% | COc1ccc(CCNc2nc3ccc(C)cc3n3cnnc23)cc1OC
-3.0% | CCCCN(CC)CCCNC(=O)Cn1nc(Cc2ccncc2)c2ccccc2c1=O
19.2% | CC(C)(C)OC(=O)NCc1ccc(NC(=O)c2nc[nH]c2C(=O)NCCCNC(=O)c2[nH]cnc2C(=O)Nc2ccc(CNC(=O)OC(C)(C)C)cc2)cc1
-21.9% | NS(=O)(=O)c1ccc(NC(=S)NC(=O)c2ccc(Br)o2)cc1
-4.9% | C/C(=N\NC(=O)c1nnn(-c2nonc2N)c1-c1cccs1)c1ccc(O)cc1
-0.5% | CC(=O)c1cccc(NC(=O)NNC(=O)c2ccc(-c3ccccc3)cc2)c1
-9.2% | COc1ccc(-c2nnc(SCC(=O)NCc3cccs3)n2C(C)C)cc1
11.2% | CCOc1cc(/C=N\NC(=O)C2C(=O)NCC2c2ccccc2)ccc1OC (stereo not drawn)
8.0% | Cc1nc(Nc2nc3ccccc3o2)nc2c1CCC2
-7.3% | CCOC(=O)c1ccc(NC(=O)Cn2nnc(-c3ccc(C)cc3)n2)cc1
-18.8% | Cc1oc(-c2ccc(Cl)cc2)nc1CN1CCCC(C(=O)NCCCN2CCOCC2)C1 (stereo not drawn)
13.3% | CSc1nc(SCCN(C)C)c2c3c(sc2n1)COC(C)(C)C3
9.2% | CCn1c(SCC(=O)NCc2ccco2)nnc1-c1c[nH]c2ccccc12
-5.4% | COc1ccccc1CNC(=O)COC(=O)Cn1cnc2ccccc21
? | COC(=O)c1ccccc1N=C(SC)N(C)C
18.8% | O=C(CSc1nnnn1-c1ccc(C(=O)O)cc1)NC1CCCCC1
8.0% | O=S(=O)(Nc1ccc(S(=O)(=O)Nc2ncccn2)cc1)c1ccc(Cl)cc1
-12.6% | CCCN1C(=O)c2ccc(C(=O)Nc3nccs3)cc2C1=O
3.7% | COC(=O)C(C(C)=O)C1=C/C(=N\S(=O)(=O)c2ccc(C)cc2)c2ccccc2C1=O (stereo not drawn)
-5.8% | COc1ccc(C2Nc3ccccc3-c3nnc(SC)nc3O2)cc1C (stereo not drawn)
-11.8% | CCOC(=O)N1C(=O)C2(CCCCC2)N(c2ccccc2Cl)C1=S
-6.1% | Cc1ccc(CNC(=O)C2CCN(S(=O)(=O)c3ccc(Br)s3)CC2)cc1
-3.4% | O=C(NCCN1CCCCC1)c1cc2ccccc2[nH]1
? | CSC1=N/C(=C\c2ccc(C)s2)C(=O)S1
-9.8% | S=C(Nc1ccccc1)NC1CCN(Cc2ccccc2)CC1
-7.5% | CC1CCCCC1NC(=O)CN(C)S(=O)(=O)c1ccc2c(c1)CCC(=O)N2 (stereo not drawn)
-5.2% | COC(=O)/C=C/c1ccc2c(c1)S(=O)(=O)N(c1cccc(OC)c1)[C@H]2CC(=O)OC
11.2% | Cc1ccc2c(c1)/C(=N/OC(=O)c1ccc(F)cc1)CCS2
1.5% | CCN(CC)C(=S)SCC(=O)Nc1ncc2c(n1)CC(C)(C)CC2=O
